eIF4H inh = human eIF4H binding inhibitors, primary screen, translation initiation inhibitor project, biochemical, uHTS, fluorescence polarization; 290,000 tested, 0.94% active; eIF4H fluorescence polarization binding assay; inhibition, % at 35 µM; AID 2012, 2009; Eukaryotic translation initiation factor 4H (Homo sapiens), Q15056;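 active means 50% or more with normal probe brightness, or confirmed in later tests; inconclusive means above 50% with abnormal brightness, or retests that disagree; inactive means below 50% or failed in later tests; about a fifth of its hits are not listed in these tables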;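 further: calls also rest on retests at 20 µM and on dose response follow-up; 0% = protein and probe with vehicle and 100% = probe without protein; strong numbers were not always called active; many hits fall short of the cut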
Yeast UUG start = modulators of yeast start codon fidelity, primary screen, whole organism, S. cerevisiae, single point, plate reader; S. cerevisiae UUG-firefly luciferase reporter, luminescence/redox ratio; activity score, % at 18.7 µM; 350,000 tested, 0.13% active;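 active means replicate mean at a twofold rise or more, about +100% in these data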;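 further: firefly luciferase made from a UUG start codon reports start codon fidelity; reporter light over untreated wells divided by growth signal over untreated wells; some hits fall short of that in this replicate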
Rce1 inh = yeast Rce1p protease inhibitors, primary screen, biochemical, fluorescence, cell-free homogeneous. calls only. yeast membranes, quenched prenylated peptide cleavage fluorescence. 290,000 tested, 0.27% active;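 active means fall in fluorescence gain of 50% or more versus controls, with final raw signal at or below 3038400; inconclusive means same 50% fall but final raw signal above 3038400; inactive means fall in fluorescence gain under 50%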;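 further: plate controls were neutral control wells for no effect and wells lacking membranes for full effect; tested at 10 µM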
Target sequence (Q03530 whole entry, looked up): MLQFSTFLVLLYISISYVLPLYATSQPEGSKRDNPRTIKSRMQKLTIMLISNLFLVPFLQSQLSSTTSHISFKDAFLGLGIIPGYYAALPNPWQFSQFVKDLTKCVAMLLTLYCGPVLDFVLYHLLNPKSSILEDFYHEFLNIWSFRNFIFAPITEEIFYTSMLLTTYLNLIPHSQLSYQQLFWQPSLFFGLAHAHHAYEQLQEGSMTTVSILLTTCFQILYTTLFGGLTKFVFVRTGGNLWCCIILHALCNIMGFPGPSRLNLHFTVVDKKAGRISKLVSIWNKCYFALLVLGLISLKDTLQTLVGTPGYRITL
Env fusion inh = inhibitors of HIV-1 Env-driven cell-cell fusion, primary screen, HeLa-JRFL effector, CEM21 target cells, luciferase | inhibition, % at 12.3 µM | 360,000 tested, 1.1% active;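 active means mean replicate inhibition score of at least 50 and every replicate individually at or above 50; inconclusive means only one of the two criteria met; inactive means mean below 50 and not all replicates reaching 50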;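 further: 0% = plate neutral controls and 100% = maraviroc near 300 nM; one replicate is shown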
CSC inhib = cancer stem cell viability inhibitors, primary screen, luminescence | cancer stem cell-like cells viability | inhibition, % at 7.5 µM | 300,000 tested, 1.1% active;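 active means mean at 75% or more and at least half the replicates too; inconclusive means mean and replicates disagree; tested in HMLE shEcad cells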;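 further: 0% = median of negative and 100% = median of positive control wells; the first replicate is given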
MT1-MMP act inh = blockers of MT1-MMP proenzyme processing, primary screen, HT1080 RFP-PRO-GFP cells, GFP/RFP fluorescence; Matrix metalloproteinase-14 (Homo sapiens), P50281; GFP/RFP ratio fluorescence, overnight; percent of plate control window, DMSO zero; GFP/RFP ratio change, % at 20 µM; 360,000 tested, 0.061% active;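 active means GFP/RFP ratio change of at least 30% with cell ATP level not reduced by more than half and red fluorescence within 50% of control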; further: strong numbers were not always called active
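Assay system – RFP-PRO-GFP reporter HT1080 cells · Compound dosing – single dose of 20 µM compound, 1% DMSO final · Incubation – overnight compound exposure at 37 °C · Measure – GFP/RFP fluorescence ratio · Benchmarks – DMSO wells and RFP-L50D-GFP cells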
PABP polyA inh = PABP poly(A) RNA binding inhibitors, primary screen, biochemical, fluorescence polarization, uHTS; inhibition, % at 35 µM; 290,000 tested, 1% active; AID 2014, 2009;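 active means 50% or more with normal probe brightness, or confirmed in later tests; inconclusive means above 50% with abnormal brightness, or retests that disagree; inactive means below 50% or failed in later tests; about a fifth of its hits are not listed in these tables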;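 further: calls also rest on retests at 20 µM and on dose response follow-up; controls were probe without protein and protein plus probe with vehicle; some compounds called inactive have numbers as strong as hits; many hits fall short of the cut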
Target sequence (P11940 whole entry, looked up): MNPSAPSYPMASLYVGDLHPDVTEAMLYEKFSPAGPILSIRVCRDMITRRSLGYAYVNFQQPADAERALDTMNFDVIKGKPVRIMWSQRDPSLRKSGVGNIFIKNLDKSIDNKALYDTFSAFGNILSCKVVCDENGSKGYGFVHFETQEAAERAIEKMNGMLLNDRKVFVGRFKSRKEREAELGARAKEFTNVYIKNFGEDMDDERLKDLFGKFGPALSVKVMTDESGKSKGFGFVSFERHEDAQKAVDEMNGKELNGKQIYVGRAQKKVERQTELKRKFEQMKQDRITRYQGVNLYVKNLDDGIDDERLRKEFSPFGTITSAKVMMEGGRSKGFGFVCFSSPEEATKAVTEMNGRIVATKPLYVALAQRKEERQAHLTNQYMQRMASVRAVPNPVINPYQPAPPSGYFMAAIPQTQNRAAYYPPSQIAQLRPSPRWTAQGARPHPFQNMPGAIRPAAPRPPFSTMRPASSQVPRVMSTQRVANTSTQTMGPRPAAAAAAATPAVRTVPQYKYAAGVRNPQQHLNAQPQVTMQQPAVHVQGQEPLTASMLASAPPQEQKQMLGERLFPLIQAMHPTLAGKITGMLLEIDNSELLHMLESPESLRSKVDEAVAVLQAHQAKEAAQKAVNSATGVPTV
MT1-MMP act inh RFP = second read-out of MT1-MMP act inh, no call of its own (marks repeat the call); RFP signal change, %; measured here: RFP expression control read;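 0 = vehicle wells; hits needed this value within 50% of zero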
Starred values were filed as active, the others as inactive; i = inactive; ? = inconclusive; . = no result given.

Molecule,Yeast UUG start,PABP polyA inh,MT1-MMP act inh RFP,Rce1 inh,MT1-MMP act inh,Env fusion inh,eIF4H inh,CSC inhib
O=C(c1ccccc1F)N(Cc1cccs1)C1CCS(=O)(=O)C1 (stereo not drawn),-12,1,2,i,1,3,-4,-26
COc1ccccc1C1C(C#N)=C(N)N(N(C)C)C2=C1C(=O)CC(C)(C)C2 (stereo not drawn),-3,-5,-2,i,-1,12,-6,-7
CCOC(=O)c1sc(NC(=O)C(CC)OC(=O)c2ccco2)nc1C (stereo not drawn),-8,1,3,i,0,-8,-11,-4
CN(C)/N=C/c1ccc(/C=N/NC(N)=S)o1,.,-3,0,.,5,-10,12,-11
O=C(CNc1ccccc1)Nc1ccc(F)cc1,.,2,4,i,8,.,0,-14
O=C(N/C(=C/c1ccc(Cl)cc1)C(=O)N1CCOCC1)c1ccccc1,-26,6,3,i,3,-15,0,12
Cc1[nH]n(C(N)=S)c(=O)c1N=Nc1ccc(S(=O)(=O)N2CCCC2)cc1,-35,-10,-9,i,-3,-18,2,-10
O=C(c1cccs1)N1CCCC(c2nc3c(nnn3Cc3cccc(Cl)c3)c(=O)[nH]2)C1 (stereo not drawn),7,10,0,i,0,3,-1,1
N#CCC(=O)Nc1ccc(C(=O)OCC(=O)NC2CCCCCC2)cc1,15,.,2,.,-2,4,.,.
C#CCNc1c2c(nc3ncnn13)CC(C)CC2 (stereo not drawn),-18,0,3,i,6,-4,-4,-7
O=C(c1ccc(F)cc1)N1CCC2(CC1)NCCc1[nH]cnc12,.,.,2,i,0,0,.,6
CCOC(=O)CNC(=O)c1cc(C)oc1C,.,11,.,.,.,.,1,8

Following part:
Molecule,Yeast UUG start,PABP polyA inh,MT1-MMP act inh RFP,Rce1 inh,MT1-MMP act inh,Env fusion inh,eIF4H inh,CSC inhib
Cc1c(C(=O)NCCS(=O)(=O)N2CCN(c3ccccc3F)CC2)cccc1[N+](=O)[O-],-12,-4,-6,i,1,7,5,24
O=C(COc1cc(Cl)ccc1Cl)N1CCNC1=O,-12,.,3,.,1,-327,.,.
CCOc1ccc2[nH]c3c(NCCN(C)C)ncnc3c2c1,-5,11,3,i,8,-20,0,-4
O=C(NC(=S)NC1C2CC3CC(C2)CC1C3)c1ccccc1 (stereo not drawn),-33,10,2,i,-5,-6,-9,-5
O=C(NCC1OCCc2ccccc21)c1ccc(NC(=O)c2ccccc2Cl)cc1 (stereo not drawn),.,6,-9,i,3,21,6,1
O=C(N[C@@H](Cc1c[nH]c2ccccc12)C(=O)O)C1CCN(S(=O)(=O)c2ccc(Cl)cc2)CC1,13,-5,1,i,-2,8,1,-8
COc1ccc(NC(=O)C(CC(C)C)NC(=O)C2CCC(C)CC2)c(OC)c1 (stereo not drawn),-17,7,-5,i,-1,11,-6,9
CCN(CC)S(=O)(=O)c1ccc(N2CCOCC2)c(NC(=O)c2cccc3ccccc23)c1,-8,-7,-3,i,2,-2,-10,3
O=C(Nc1ccc(N2CCOCC2)cc1N1CCOCC1)c1cccc([N+](=O)[O-])c1,-10,4,1,i,-2,2,-2,-7
CN(C)/C=N/C(=S)Nc1ccc(Cl)cc1,.,-9,2,i,2,-15,-1,-6
CCS(=O)(=O)c1nc(S(=O)(=O)c2ccc(Cl)cc2)c(N2CCN(C)CC2)s1,3,8,-5,i,-9,-1,-8,13
Nn1c(SCC(=O)Nc2ccccc2F)nnc1-c1cccnc1,-6,2,11,i,6,-47,-6,-3

New compounds follow.
Molecule,Yeast UUG start,PABP polyA inh,MT1-MMP act inh RFP,Rce1 inh,MT1-MMP act inh,Env fusion inh,eIF4H inh,CSC inhib
CCOC(O)[C@H]1N[C@@H](c2ccc(Cl)cc2)[C@@H]([N+](=O)[O-])[C@@H]1c1ccccc1 (stereo partly drawn),.,13,3,i,0,-32,-2,-14
O=C(c1ccc(S(=O)(=O)N2CCCCC2)cc1)N1CCc2ccccc2C1,-3,3,-2,i,1,-1,7,3
O=C(COc1cccnc1[N+](=O)[O-])Nc1ccc(N2CCOCC2)cc1,.,-4,1,i,-1,17,-10,-23
Cc1ccc(CNC(=O)C2(C(F)(F)F)C/C(=C\Cc3ccccc3)CCCO2)o1 (stereo not drawn),7,8,0,i,2,.,-9,-2
COc1ccc(CC(=O)Nc2ccc(N3CCCC3)c(C)c2)cc1,-10,5,0,i,-3,-2,-2,-9
CCOC(=O)C1CCN(C(=O)CN(c2cccc(C(F)(F)F)c2)S(C)(=O)=O)CC1,8,-3,-6,.,0,.,-6,4
CC(CN1C(C)CCCC1C)OC(=O)c1ccccc1F (stereo not drawn),-20,-5,3,i,2,-9,-12,-10
CCOC(=O)C1=C(C)N=C2c3ccccc3C(=O)C2C1c1ccc(C)cc1 (stereo not drawn),-12,17,-1,i,4,-18,32,17
CCCS(=O)(=O)NC(=O)C1(C)CCCN(C(=O)c2ccc3ccccc3n2)C1 (stereo not drawn),-13,.,5,.,-4,29,.,.
CN(C)S(=O)(=O)c1cccc(NC(=O)Cn2cc(C(F)(F)F)cc(Cl)c2=O)c1,.,1,4,i,2,17,-4,-15
CCOc1nc(Nc2ccccc2F)nc(OCC)n1,-10,-4,6,i,2,2,-3,-10
COc1ccc(Cc2nnc(SC(C)C(=O)Nc3ccc(C(N)=O)cc3)o2)cc1 (stereo not drawn),.,.,3,i,1,.,.,-8

Remaining list, next part
Molecule,Yeast UUG start,PABP polyA inh,MT1-MMP act inh RFP,Rce1 inh,MT1-MMP act inh,Env fusion inh,eIF4H inh,CSC inhib
COC(=O)[C@@]12CCCCN1[C@H](c1ccc(-c3ccc(F)cc3)c(OC)c1)[C@H]1C(=O)N(C)C(=O)[C@H]12,-10,.,-19,.,-10,13,.,.
COc1ccccc1NC(=O)Cc1coc2cc(C)ccc12,-11,6,5,i,3,-23,10,-5
Cc1ccc(NC(=O)Cc2ccsc2)cc1Cl,-7,-3,0,i,4,-5,-4,-5
O=C(Nc1cccc(C(F)(F)F)c1)C12CC3CC(CC(C3)C1)C2,-9,5,2,i,2,.,-4,28
CCOC(=O)C1=CN(Cc2ccc(Br)cc2)S(=O)(=O)NC1C (stereo not drawn),-28,.,-1,.,1,21,.,.
COc1ccc(C(=O)CCNc2ccc(C)c(Cl)c2)cc1,-15,-10,0,i,-1,6,-13,-1
O=C(COC(=O)C1CC1)Nc1ccc(Oc2ccccc2)cc1,-9,-2,3,i,4,.,-4,.
Cc1c(C(=O)c2ccc(Br)cc2)c(=O)n(C)c(=O)n1C,.,2,2,i,-1,13,-9,0
CCN(CC(=O)Nc1c(F)cccc1F)C(=O)CNC(=O)c1cccc(C)c1,.,12,1,i,2,1,-1,-9
Cc1cccc(CN2C(=O)c3ccccc3S(=O)(=O)c3ccc(C(=O)NCCCN4CCCC4)cc32)c1,5,-9,-1,i,-6,-6,0,.
Nc1c(C(=O)NCc2ccccc2)nnn1Cc1ccc(F)cc1,-16,1,0,i,3,-4,0,8
Cc1cccc(-n2c(SCc3ccc(C#N)cc3)nnc2-c2c[nH]c3ccccc23)c1,8,-7,-3,i,0,.,-6,5

Single records (already shown). Screens in order: Yeast UUG start	PABP polyA inh	MT1-MMP act inh RFP	Rce1 inh	MT1-MMP act inh	Env fusion inh	eIF4H inh	CSC inhib
Shown for N#CCC(=O)Nc1ccc(C(=O)OCC(=O)NC2CCCCCC2)cc1 → 15	.	2	.	-2	4	.	.
Shown for CN(C)/N=C/c1ccc(/C=N/NC(N)=S)o1 → .	-3	0	.	5	-10	12	-11

(next part)
Molecule,Yeast UUG start,PABP polyA inh,MT1-MMP act inh RFP,Rce1 inh,MT1-MMP act inh,Env fusion inh,eIF4H inh,CSC inhib
Cc1ccc(S(=O)(=O)N2CCN(C(=O)c3cc4c(s3)CCC(C)C4)CC2)cc1 (stereo not drawn),-13,.,-3,.,2,3,.,.
c1ccc(-c2nc(-c3ccccn3)no2)cc1,-62,0,5,i,2,33,-4,51
O=C(Nc1cccc(Cl)c1)N1CCN(C2c3ccccc3-c3ccccc32)CC1,.,6,0,i,0,-7,4,0
COc1ccccc1C(=O)NCCN=C1NS(=O)(=O)c2ccccc21,-13,3,1,i,3,-9,-4,-1
C=C1CC2C(=O)N(Cc3cc(OC)ccc3OC)C(C(=O)OCC)(C(=O)OCC)C1N2C(=O)OC(C)(C)C (stereo not drawn),13,.,1,i,0,1,.,0
O=C(NC(C(=O)N/N=C/c1cccnc1)c1n[nH]c(=O)c2ccccc12)c1ccccc1 (stereo not drawn),.,3,3,i,5,-10,7,-6
Cc1ccc(-c2csc3nc(=O)c(C)nn23)cc1,.,-3,.,i,.,.,8,1
O=C(c1ccc(F)cc1)C1CCN(C(=O)c2ccncc2)CC1,-8,-12,7,i,3,-15,0,-6
CCOC(=O)CCc1c(C)c2ccc(OCC(=O)N3CCOCC3)c(C)c2oc1=O,-4,0,6,?,9,-6,-1,-13
O=C(COc1ccc(-n2cnnn2)cc1)Nc1ccccc1OC(F)F,-8,.,3,.,2,-25,.,.
CCN(C1CCCCC1)S(=O)(=O)c1ccc(OC)c(C)c1,-7,1,-5,i,-3,.,-5,2
CC(OC(=O)c1ccccc1NCc1ccco1)C(=O)Nc1ncc(Cl)cc1Cl (stereo not drawn),-2,7,-3,i,2,.,-6,-2

The listing continues.
Molecule,Yeast UUG start,PABP polyA inh,MT1-MMP act inh RFP,Rce1 inh,MT1-MMP act inh,Env fusion inh,eIF4H inh,CSC inhib
Cc1cc(-c2ccc(NC(=O)[C@@H]3CCCC[C@@H]3C(=O)O)c(C)c2)ccc1NC(=O)[C@@H]1CCCC[C@@H]1C(=O)O,.,6,-10,i,3,1,-3,29
CS(=O)(=O)c1ccc(C(=O)Nc2ccc(N3CCCCC3)cc2)c(Cl)c1,.,-2,6,i,6,-40,-6,-5
Cc1cc(C)nc(NC2=NC3CCCCC3N2)n1 (stereo not drawn),-17,8,5,i,4,.,-4,5
CC(=O)c1ccc(OCc2nnn(CC(=O)NS(=O)(=O)Cc3ccccc3)c2-c2ccccc2)cc1,-10,.,-3,.,-2,1,.,.
COc1cc(/C=C2/SC(=S)N(CC(=O)O)C2=O)ccc1OC(=O)c1ccco1,1,34,47,.,5,-1,-14,1
CN(c1ccccc1)S(=O)(=O)c1cccc(NC(=O)c2ccc(Cl)c([N+](=O)[O-])c2)c1,-29,.,-11,.,6,.,.,23
O=C(Nc1ccccn1)C1CCN(S(=O)(=O)c2cccc3nonc23)CC1,-19,11,3,i,1,.,4,-3
CCCN1CCN(S(=O)(=O)c2ccc3c(c2)NC(=O)C(C)S3)CC1 (stereo not drawn),-15,2,-2,i,1,6,-8,-13
Nc1nc(NCC2CCCO2)nc(Nc2ccc(F)cc2)c1[N+](=O)[O-] (stereo not drawn),-18,0,-2,i,-1,-57,-5,-5
CCc1ccccc1N(CC(=O)NCc1ccco1)C(=O)CCC(=O)Nc1ccccn1,-13,-2,1,i,-2,9,1,-6
CC1CCN(CC(=O)NCCc2ccc(F)cc2)CC1,.,8,3,i,4,10,1,2
O=C(O)CCC(=NNC(=O)c1cccc(S(=O)(=O)N2CCCCC2)c1)c1ccccc1,-22,.,0,.,-1,.,.,-2
C=CCC1(CC=C)CCCN1C(=O)c1cc(COc2ccc(-n3cncn3)cc2)on1,-32,7,-32,i,4,24,6,-5
CC(c1ccccc1)N1C(=O)c2ccc(C(=O)Nc3ccccc3C(=O)O)cc2C1=O (stereo not drawn),-13,7,3,i,0,3,2,-7

Assay outcomes (PubChem)

A portion of the library (hit frequency here may not be typical).
